Compound activity deposited in PubChem by National Center for Advancing Translational Sciences (NCATS).
Cruzain inh noDet = blocks cruzain activity in detergent-free assay; purified cruzain, Z-FR-AMC fluorescence, no detergent; Potency, µM, for the others: max response, negative = inhibition, actives largely listed as inhibitors; actives 2.3% (n = 200,000);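 further: plate controls were enzyme without inhibitor for no effect and buffer without enzyme for full effect; nearly all actives have a fitted effect of over 40% in size; top concentration of the series not given in the record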
Target sequence (P25779 123-467 limits assumed): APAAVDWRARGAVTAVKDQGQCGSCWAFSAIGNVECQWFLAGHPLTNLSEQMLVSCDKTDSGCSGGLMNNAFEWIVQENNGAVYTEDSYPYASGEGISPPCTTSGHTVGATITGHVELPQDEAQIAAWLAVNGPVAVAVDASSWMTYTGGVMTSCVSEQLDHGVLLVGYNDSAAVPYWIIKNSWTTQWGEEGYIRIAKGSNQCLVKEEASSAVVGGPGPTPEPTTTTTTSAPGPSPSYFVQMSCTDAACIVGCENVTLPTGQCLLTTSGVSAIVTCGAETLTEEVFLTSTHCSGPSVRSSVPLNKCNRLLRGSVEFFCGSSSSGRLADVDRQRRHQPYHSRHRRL
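Purified cruzain at 1.5 nM, pre-incubated 15 min with compound at room temperature in 100 mM sodium acetate pH 5.5, 5 mM DTT, 0.00005% Triton X-100. Reaction started with 2 uM Z-FR-AMC; AMC fluorescence increase over 60 s gives rate.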
StopGo reporter = lowers the luciferase signal of an FMDV 2A StopGo reporter | human cells with a luciferase reporter of 2A StopGo recoding; control for the full effect not named in the record | Potency, µM (series often up to 57.9 µM), for the others: top-dose signal change, negative = less light | actives 1.2% (n = 410,000); active = well fitted falling curve with a large enough effect; inconclusive = small, poorly fitted or top-dose-only effect; inactive = no such curve, though single readings can be large or run the other way; tested in HEK293T cells; further: on the % scale 0 is the no-effect control and ±100 the full control effect; nearly all actives have a fitted effect of over 45% in size; luciferase light after 4 h
NS1 function inh = influenza NS1 inhibition | actives 0.4% (n = 270,000) | Potency, µM (highest dose often 46.1 µM), for inactives: top-dose activity, positive = more growth | AID 2326 | S. cerevisiae slowed by influenza A NS1, growth recovery by OD600; active means well fitted rising curve with a large enough effect; inconclusive means small, poorly fitted or top-dose-only effect; inactive means no such curve, though single readings can be large or run the other way; further: nearly all actives have a fitted effect of over 50% in size
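Compounds were scored for reversing the slow growth caused by influenza A NS1 in S. cerevisiae, measured by optical density at 600 nm. Assay medium contained 2% galactose at pH 6.0; NS1-free yeast of the same strain were the positive control.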
Lassa entry inh = inhibitors of Lassa virus binding or cell entry. Lassa virus pseudotype entry inhibition, cell reporter; control for the full effect not named in the record. actives 1.2% (n = 300,000). Potency, µM (titrated, usually from 37.9 µM), inactives show at the top dose activity change, negative = inhibition, actives largely listed as inhibitors; active means well fitted inhibition curve with a large enough effect; inconclusive means small, poorly fitted or top-dose-only effect, or effect the other way; inactive means flat fitted curve, though single readings scatter; tested in HEK293 cells; further: on the % scale 0 is the no-effect control and ±100 the full control effect; nearly all actives have a fitted effect of over 50% in size; luciferase read-out
Marburg entry inh = inhibitors of Marburg virus binding or cell entry; Marburg virus pseudotyped entry inhibition, cell reporter; control for the full effect not named in the record; about a third of the inactives were read at about 46 µM; Potency, µM (titrated, usually from 37.8 µM), inactives show at the highest dose activity change, negative = inhibition, usual class: inhibitors; actives 1.8% (n = 300,000); active = well fitted inhibition curve with a large enough effect; inconclusive = small, poorly fitted or top-dose-only effect, or effect the other way; inactive = flat fitted curve, though single readings scatter; tested in HEK293 cells; about a fifth of its hits are not listed in these tables; further: on the % scale 0 is the no-effect control and ±100 the full control effect; luciferase read-out
RE007 growth inh = less growth of the S. pombe RE007 Vpr strain; Potency, µM (highest dose often 92.2 µM), for inactives: at the top dose activity change, negative = less growth; S. pombe RE007 Vpr strain, BacTiter-Glo ATP luminescence, 24 h; control for the full effect not named in the record; AID 651644; actives 0.21% (n = 360,000); active = well fitted falling curve with a large enough effect; inconclusive = small, poorly fitted or top-dose-only effect; inactive = no such curve, though single readings can be large or run the other way;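 further: on the % scale 0 is the no-effect control and ±100 the full control effect; nearly all actives have a fitted effect of over 50% in size; the assay follows cell death caused by Vpr and the record does not say whether a fall means rescue or toxicity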
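Fission yeast RE007 carrying one integrated HIV-1 vpr copy, seeded at OD 0.01 in PMG+AL medium with 23 nL pinned compound. Grown 24 h at 30 degrees; viability read by BacTiter-Glo luminescence after 5 min.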
SARS PLpro yeast = inhibitors of SARS-CoV papain-like protease in yeast; actives 0.19% (n = 330,000); S. cerevisiae expressing SARS-CoV PLpro, growth rescue; control for the full effect not named in the record; Potency, µM (highest dose often 32.9 µM), inactives show top-dose activity, positive = growth rescue; active means well fitted rising curve with a large enough effect; inconclusive means small, poorly fitted or top-dose-only effect; inactive means no such curve, though single readings can be large or run the other way; further: 0% is about no effect; nearly all actives have a fitted effect of over 55% in size; growth read by luminescence after 48 h
Cruzain Triton = inhibitors of Trypanosoma cruzi cruzain with detergent. actives 0.43% (n = 200,000). Potency, µM, without a hit: max response, negative = inhibition, usual class: inhibitors. purified cruzain, Z-FR-AMC fluorescence, 0.01% Triton. P25779;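 further: plate controls were neutral wells for no effect and buffer without enzyme for full effect; nearly all actives have a fitted effect of over 40% in size; top concentration of the series not given in the record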
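Z-FR-AMC hydrolysis (2 uM substrate) by cruzain (1.5 nM) monitored kinetically at ex 360/em 450 nm after 15 min room-temperature compound exposure; 0.01% Triton X-100, pH 5.5, 5 mM DTT.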
Starred values were filed as active, the others as inactive; ? = inconclusive; . = no result given; & = joins results of further samples; ! = a repeat was not active; [ ] = another dose, or the depositor's remark. Unless noted, the call rests on the fitted dose curve; in most records, active means well fitted curve in the direction sought with a large enough effect; inconclusive means small, poorly fitted or top-dose-only effect, or another doubt; inactive means no such curve, though single readings can be large; an effect the other way counts as inactive or inconclusive. Potency means the concentration at half of the fitted maximal effect. Random draw from the library; 4.5% or so of the library scored in one or more.

SMILES	Cruzain inh noDet	StopGo reporter	NS1 function inh	Lassa entry inh	Marburg entry inh	RE007 growth inh	SARS PLpro yeast	Cruzain Triton
CCOc1ccc(N2C(=O)CC(Sc3nccc(C)n3)C2=O)cc1 (stereo not drawn)	5%	-5%	-2%	2%	13%	-27%	-13%	0.4%
CC12CNCC(C)(CN(C(c3ccccc3)c3ccccc3)C1)C2	0%	?	?	20µM*	?	-3%	5%	-0.7%
COc1ccc(N2CCN(S(=O)(=O)c3c(C)nc4scc(C)n4c3=O)CC2)cc1	-5%	-11%&0%	-4%	9%&-1%[46.1 µM]	3%[46.1 µM]	-7%	-3%	-4.9%
CCOC(=O)C1CCN(C(=O)COC(=O)c2ccccc2C(=O)c2ccc(Cl)cc2)CC1	.	-7%	.	3%	0%	1%	4%	.
CN(C)S(=O)(=O)N1CCC(Oc2cccc(C(=O)NC3CCOC3)c2)CC1 (stereo not drawn)	.	12%	6%	1%	-8%	-14%	5%	.
C=CCN(CC=C)C(=S)NC(=O)/C=C/c1ccc(OC)cc1	-19%	27%	?	?	5%	1%	-19%	-9.3%
Cc1ccc(NC(=O)c2cccs2)cc1S(=O)(=O)N(C)C	-7%	4%	-10%	-2%	?	-19%	-3%	-0.1%
CN(Cc1c(C(=O)N/N=C/c2cccc(Cl)c2)nnn1-c1nonc1N)c1ccccc1	.	-17%	4%	.	.	3%	?	.
O=[N+]([O-])c1ccc(COc2ccc(-c3[nH]ncc3-c3ccccc3)c(O)c2)cc1	-5%	?	5%	?	?	24%	14%	-2.9%
CCN(CC)c1ccc(CNc2ccc3c(c2)ncn3C(C)(C)C)cc1	.	26%	-3%	12%[46.1 µM]	?	6%	0%	.
O=C(COS(=O)c1ccccc1)Nc1cc(Cl)ccc1N1CCOCC1 (stereo not drawn)	.	-15%	-3%	.	.	9%	0%	.
Cc1nn(-c2ccccc2)c2[nH]c(=O)c(CNc3ccc(N4CCOCC4)cc3)cc12	13%	-8%	-8%	-17%	?	-17%	-22%	-3.0%
COc1ccc(NC(=O)CSc2nc3ccccc3n2CC(=O)N2CCCC(C)C2)cc1 (stereo not drawn)	-7%	-6%	.	-20%[46.1 µM]	.	.	.	-2.7%
COc1ccc(C(=O)Sc2ccc(C)cc2)cc1OC	0%	0%	-26%	-2%	7%	3%	-4%	-9.9%
CCN1CCN(CCC(=O)Nc2ccccc2OC)CC1	3%	12%	-2%	12%	1%	5%	3%	5.0%
Cn1c(=O)c2[nH]c(N3CCCCC3)nc2n(C)c1=O	.	0%	10%	17%[46.1 µM]	-5%[46.1 µM]	-15%	0%	.
CC(C)(C)c1ccc(C(=O)c2c[nH]c(C(=O)NCCCN3CCOCC3)c2)cc1	1%	-16%	2%	-21%	?	14%	2%	-2.5%
O=C(O/N=C1/CCCc2occc21)c1ccc(Cl)cc1Cl	.	7%	3%	12%[46.1 µM]	-5%[46.1 µM]	-3%	-8%	.
Cc1ccccc1Cn1ccc(NC(=O)CCSc2nc(-c3ccco3)cc(C(F)(F)F)n2)n1	-18%	0%	-31%	-27%	1.1µM*!	4%	-11%	-7.5%
N#C/C(=C/c1ccc(-c2ccc(S(N)(=O)=O)cc2)o1)C(=O)Nc1ccccc1	?	-24%	23%	?	-15%	3%	9%	-3.7%
COc1ccc(OC)c(S(=O)(=O)N(C)CC(=O)O)c1	11%	0%	1.8µM*	7%	-12%[46.1 µM]	-15%	1%	-0.1%
Cc1ccc(NC(=O)c2c(F)cccc2Cl)cc1NS(C)(=O)=O	.	4%	-2%	?	-8%	-11%	1%	.
CC(=O)Nc1ccc(C(=O)NNC(=O)c2cccc(C)c2)cc1	.	0%	-10%	18%	-23%	-2%	7%	.
CSc1nc2sc3c(c2c(=O)[nH]1)CCCC3	-9%	37%[activator]	-8%	?	24%	-4%	7%	-3.5%
CC(=O)NS(=O)(=O)c1ccc(N/C(N)=N/c2nc(C)cc(C)n2)cc1	.	0%	-1%	.	.	8%	?	.
CC(C)(C)NC(=O)NC(=O)CN1CCN(S(=O)(=O)c2ccc3c(c2)OCCO3)CC1	.	?	-2%	.	.	11%	1%	.
NC(=O)C1CCN(C(=O)CSc2ccccn2)CC1	8%	13%	2%	10%	6%	-14%	0%	2.2%
Cc1ccc(C(=O)Nc2ccc(N3CCCC3)cc2)cc1	.	0%	.	-23%	0%[46.1 µM]	-1%	1%	.
O=C(Nc1nc(-c2nc3ccccc3s2)cs1)c1ccco1	-18%	22%	-40%	.	.	-11%	-7%	-4.6%
COc1ccccc1NC(=O)C1=C(C)NC(=O)NC1c1ccccc1F (stereo not drawn)	-12%	0%	-8%	.	.	1%	-4%	-0.5%
Cc1ccc(S(=O)(=O)CCc2ccncc2)cc1	.	-21%	-1%	.	.	-11%	-2%	.
COC(=O)N/N=C\c1ccc(OC(=O)c2ccco2)cc1	.	-5%	.	-11%[46.1 µM]	3%[46.1 µM]	-4%	-13%	.
COc1ccc(OCC(=O)N/N=C2\CCc3ccccc32)cc1	-2%	65%[activator]	?	13%	13%	-4%	7%	0.4%
O=C(Nc1ccccn1)C1CCN(S(=O)(=O)c2ccc(Cl)cc2)CC1	.	-6%	.	7%	22%[46.1 µM]	19%	1%	.
COc1ccc(-c2nnc(SCc3nnc(-c4cccs4)o3)n2CC2CCCO2)cc1 (stereo not drawn)	-4%	-23%	-4%	-2%	-2%	-11%	-7%	-2.6%
Cc1cccc(OCC(=O)Nc2ccc(S(=O)(=O)N3CCN(C)CC3)cc2)c1	11%	-2%	5%	10%	2%[46.1 µM]	2%	3.5µM*	-2.6%
CCOc1ccccc1NC(=O)c1cccc2c1C(=O)N(CCOC)C2	10%	?	-63%	.	.	7%	6%	4.2%
Cc1cc(=O)[nH]c(=S)n1-c1ccccc1	5%	.	-6%	6%	6%	9%	1%	-4.6%
O=C1Nc2c(c(=O)[nH]c(=O)n2-c2ccc(Cl)cc2)C1(NS(=O)(=O)c1ccccc1)C(F)(F)F (stereo not drawn)	-8%	11%	.	7%[46.1 µM]	-6%[46.1 µM]	.	.	-5.2%
COC(=O)C(NC(=O)c1ccccc1)(Nc1nc(C)cs1)C(F)(F)F (stereo not drawn)	14%	24%	1%	11%	4%	3%	1%	1.8%
CCC(C(=O)Nc1ccccc1OC)n1nc(C)c2sc3ccccc3c2c1=O (stereo not drawn)	11%	-20%	.	4%[46.1 µM]	19%[46.1 µM]	.	.	-0.8%
CC(NC(=O)c1ccc(N(C)C)cc1)C1CC2CCC1C2 (stereo not drawn)	-25%	3%	13%	-23%	?	-9%	22µM*	-2.3%
CC1CC(Nc2ccccc2)c2ccccc2N1C(=O)c1ccncc1 (stereo not drawn)	.	-3%	.	-24%	10µM*	-11%	-1%	.
COc1ccc(Cl)cc1NC(=O)CC1CCCC1	.	-12%	-29%	12%	9%[46.1 µM]	-2%	0%	.
CCCn1c(C)cs/c1=N\C(=S)Nc1ccccc1	?	-9%	9%	2%	-10%	-5%	6%	-1.6%
COCCN1Cc2c(sc(C)c2C)N(C(=O)c2ccccc2)C1	7%	29%	?	-4%	?	-20%	3%	-4.1%
COc1cc(C2C(C(=O)c3cc4ccccc4o3)=C(O)C(=O)N2c2cc(C)on2)cc(OC)c1OC (stereo not drawn)	.	-16%	13%	.	.	-10%	-6%	.
CCCc1cc(=O)oc2c(C)c(OCC(=O)N3CCC(C(=O)O)CC3)ccc12	.	0%	2%	.	.	-2%	0%	.
O=C(COC(=O)CN1C(=O)COc2ccccc21)NC1CCCCC1	.	-10%	.	7%	-30%	-13%	-5%	.
CC(=O)Nc1ccc(-c2cc(-c3ccccc3)nc(-c3ccccc3)n2)cc1	?	?	6%	12%	?	18%	10%	-2.5%
Continuation:
SMILES	Cruzain inh noDet	StopGo reporter	NS1 function inh	Lassa entry inh	Marburg entry inh	RE007 growth inh	SARS PLpro yeast	Cruzain Triton
CCCCN(C(=O)C1CC1)C1CCS(=O)(=O)C1 (stereo not drawn)	.	20%	.	3%	13%[46.1 µM]	2%	4%	.
O=C(Cn1ncc2c3ccccc3n(Cc3ccccc3)c2c1=O)Nc1ccccc1C(F)(F)F	-10%	-7%	.	-12%[46.1 µM]	?	.	.	-1.8%
Cc1ccc2c(C)c(C(=O)N(C)Cc3ccncn3)oc2c1C	.	37%[activator]	1%	.	.	?	-3%	.
O=C(O)c1cc(-c2cc(C(=O)O)c3ccccc3n2)ccc1O	.	-18%	.	9%[46.1 µM]	?	3%	.	.
CC1CC(C)CN(c2ccc(S(=O)(=O)N3CCOCC3)cc2)C1 (stereo not drawn)	.	-4%	-31%	-15%	-28%	11%	-7%	.
NNC(=O)CC(=O)NC1(Cc2ccc(O)cc2)CCCCC1	.	2%	4%	.	-20%[46.1 µM]	-6%	0%	.
Cc1cc(NS(=O)(=O)c2ccc(Nc3nc(-c4sc(C)nc4C)cs3)cc2)no1	8%	.	-5%	.	.	.	10%	-0.6%
O=C(COc1ccc(Cl)cc1[N+](=O)[O-])N1CCCCC1	.	20%	1%	-1%[46.1 µM]	9%[46.1 µM]	13%	0%	.
Cc1ccc(-n2ncc3c(=O)n(CC(=O)N4CCCCCC4)cnc32)cc1	5%	0%	0%	-1%	12%	11%	6%	0.3%
Cn1c2ccccc2c2c(C(=O)N3CCN(c4ccc(F)cc4)CC3)cn(C3CCCC3)c(=O)c21	-11%	3%	21%	10µM*	18µM*!	9%	0%	1.6%
CN(C)CCCO/N=C(\c1ccccc1)c1ccncc1	-2%	-16%	7%	14%	?	-2%	-12%	5.6%
N=c1c(C(=O)NCc2ccccc2)cc2c(=O)n3ccccc3nc2n1Cc1ccco1	-10%	-28%	0%	-27%	11µM*	-16%	4%	-3.1%
CCOC(=O)c1c(C)sc(-c2c(-c3cccc(Cl)c3)[nH]c3c2c(=O)n(C)c(=O)n3C)c1O	-17%	-4%	.	-19%[46.1 µM]	-8%[46.1 µM]	.	.	-2.6%
N#CCCn1cc(C(=O)CN2C(=O)NC3(CCCCCC3)C2=O)c2ccccc21	.	10%	.	9%	?	0%	3%	.
